FGF22 binding: shifts melting point of recombinant human FGF22 | Q9HCT0 | recombinant FGF22 thermal shift, SYPRO orange fluorescence; percent of sucrose octasulfate shift, DMSO zero | calls only at 9.99 µM | 340,000 tested, 1.5% active | AID 651658;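 active = melting point raised past a set limit in the mean and every replicate; three in four hits are not shown here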
Target sequence (Q9HCT0 whole entry, looked up): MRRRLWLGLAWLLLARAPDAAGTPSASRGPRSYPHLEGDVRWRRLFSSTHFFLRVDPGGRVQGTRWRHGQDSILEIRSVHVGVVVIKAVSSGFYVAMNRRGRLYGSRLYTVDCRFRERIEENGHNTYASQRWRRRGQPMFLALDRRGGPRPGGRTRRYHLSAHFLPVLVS
rRNA inh HTS: inhibitors of bacterial rRNA selective over humanized ribosomes; 350,000 tested, 1.6% active; GFP signal change (wild-type ribosome), % (no concentration beside the values); E. coli WT GFP vs humanized-ribosome RFP mutants, fluorescence, 24 h; active compounds read low; DMSO median 0, no signal -100;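 active = significant combined selectivity score with lowered wild-type GFP, culture density cut under 30%, mutant RFP and density less affected; inactive = any of these conditions unmet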; note: one replicate is shown; some compounds called inactive have numbers as strong as hits
rRNA inh HTS OD600: further read-out of rRNA inh HTS, marked with its call; OD600 change, %; measured here: OD600 growth;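 optical density of the mix in the first replicate; 0 = DMSO median and -100 = no signal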
rRNA inh HTS RFP: second read-out of rRNA inh HTS, no call of its own (marks repeat the call); RFP signal change, %; measured here: RFP humanized mutant strains;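 first replicate; 0 = DMSO median and -100 = no signal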
* marks the source's active call; other numbers are inactive results.

Screening COc1cccc(CNC(=O)C[C@H]2CC[C@@H]3[C@@H](COc4ccc(NC(C)=O)cc4C(=O)N3C)O2)c1 returned FGF22 binding inactive, rRNA inh HTS -0.4, rRNA inh HTS OD600 0.3 and rRNA inh HTS RFP 0.4.
`Cc1ccccc1S(=O)(=O)N1CC[C@@H]2[C@@H](CO)N(C)c3ccc(-c4cccc(F)c4)cc3[C@@H]21` gave FGF22 binding inactive, rRNA inh HTS 2.6, rRNA inh HTS OD600 21.8 and rRNA inh HTS RFP 2.4.
COCC(=O)Nc1ccc2c(c1)C(=O)N(C)[C@@H]1CC[C@@H](CC(=O)NCc3ccc(OC)cc3)O[C@H]1CO2 was read as FGF22 binding inactive, rRNA inh HTS -1.9, rRNA inh HTS OD600 -5.6 and rRNA inh HTS RFP 0.2.
Screening COC(=O)C1=C(C)N(Cc2ccc(C(F)(F)F)cc2)C(=NCc2cccc(C(F)(F)F)c2)NC1c1ccccc1C(F)(F)F (stereo unspecified) returned FGF22 binding inactive, rRNA inh HTS 30.2, rRNA inh HTS OD600 21.0 and rRNA inh HTS RFP 3.3.
C[C@H]1CN([C@@H](C)CO)C(=O)c2cc(NC(=O)Nc3cccc4ccccc34)ccc2O[C@H]1CN(C)C was read as FGF22 binding inactive, rRNA inh HTS -4.1, rRNA inh HTS OD600 -3.5 and rRNA inh HTS RFP -1.3.
Screening COc1ccc(NC(=O)N(C)C[C@@H]2OCCCC[C@@H](C)Oc3ccc(NC(=O)c4ccncc4)cc3C(=O)N([C@@H](C)CO)C[C@H]2C)cc1 returned FGF22 binding inactive, rRNA inh HTS -0.9, rRNA inh HTS OD600 -1.4 and rRNA inh HTS RFP 0.2.
`O=C(C[C@@H]1CC[C@@H]2[C@H](COC[C@H](O)CN2Cc2nccs2)O1)N1CCC(Cc2ccccc2)CC1` gave FGF22 binding inactive, rRNA inh HTS -0.7, rRNA inh HTS OD600 -18.5 and rRNA inh HTS RFP 1.0.
Screening O=C(Nc1ccccc1)Nc1ccc2c(c1)[C@H]1C[C@H](CC(=O)N3CCOCC3)O[C@@H](CO)[C@H]1O2 returned FGF22 binding inactive, rRNA inh HTS 4.0, rRNA inh HTS OD600 6.8 and rRNA inh HTS RFP -2.0.
`CCCc1ccc(-c2cc(NC(=O)Cc3c(C)[nH]c4ccccc34)ccc2Nc2cccnc2)cc1` gave FGF22 binding inactive, rRNA inh HTS 4.7, rRNA inh HTS OD600 8.0 and rRNA inh HTS RFP 5.8.
Screening CNC(=O)C[C@@H]1CC[C@@H]2[C@H](COc3ccc(NC(=O)c4cc(C)on4)cc3C(=O)N2C)O1 returned FGF22 binding inactive, rRNA inh HTS 1.1, rRNA inh HTS OD600 -5.1 and rRNA inh HTS RFP -0.2.
For COc1ccc(NC(=O)Nc2ccc3c(c2)CC(=O)N([C@@H](C)CO)C[C@@H](C)[C@@H](CN(C)C(=O)Nc2ccc(C(F)(F)F)cc2)O3)cc1 the results were FGF22 binding inactive, rRNA inh HTS -3.5, rRNA inh HTS OD600 -13.9 and rRNA inh HTS RFP 1.5.
`CS(=O)(=O)Nc1ccc2c(c1)[C@H]1C[C@@H](CC(=O)N3CCCCC3)O[C@H](CO)[C@H]1O2` gave FGF22 binding inactive, rRNA inh HTS 4.3, rRNA inh HTS OD600 8.5 and rRNA inh HTS RFP 0.5.
For O=C(C[C@H]1CC[C@@H]2[C@H](COC[C@@H](O)CN2Cc2ccccc2F)O1)NC1CCC1 the results were FGF22 binding inactive, rRNA inh HTS -0.2, rRNA inh HTS OD600 -1.7 and rRNA inh HTS RFP -1.5.
For COc1ccc(S(=O)(=O)Nc2ccc3c(c2)C(=O)N([C@H](C)CO)C[C@H](C)[C@@H](CN(C)C(=O)Nc2cccc4ccccc24)OCCCC[C@@H](C)O3)cc1 the results were FGF22 binding inactive, rRNA inh HTS 4.5, rRNA inh HTS OD600 5.3 and rRNA inh HTS RFP -0.2.
Screening C[C@H](CO)N1C[C@H](C)[C@H](CN(C)Cc2ccc3c(c2)OCO3)OCCCC[C@H](C)Oc2ccc(NS(=O)(=O)c3cn(C)cn3)cc2C1=O returned FGF22 binding inactive, rRNA inh HTS 2.5, rRNA inh HTS OD600 0.6 and rRNA inh HTS RFP -1.6.
CN(C)CCCNC(=O)C[C@@H]1CC[C@@H]2[C@H](COC[C@@H](O)CN2S(=O)(=O)c2ccc(Cl)cc2)O1 was read as FGF22 binding inactive, rRNA inh HTS 2.2, rRNA inh HTS OD600 4.2 and rRNA inh HTS RFP -2.0.
O=C(C[C@@H]1CC[C@@H]2[C@H](COC[C@@H](O)CN2C(=O)c2ccccc2)O1)Nc1ccccc1 was read as FGF22 binding inactive, rRNA inh HTS -2.3, rRNA inh HTS OD600 -1.4 and rRNA inh HTS RFP 19.3.
For CCCNC(=O)C[C@H]1C[C@H]2c3cc(NC(=O)c4ccc5c(c4)OCO5)ccc3O[C@H]2[C@@H](CO)O1 the results were FGF22 binding inactive, rRNA inh HTS 0.1, rRNA inh HTS OD600 4.0 and rRNA inh HTS RFP -1.3.
CC(C)(C)c1ccc(-c2cc(NC(=O)Cc3c[nH]c4ccccc34)ccc2Nc2cccnc2)cc1 was read as FGF22 binding inactive, rRNA inh HTS 5.3, rRNA inh HTS OD600 6.9 and rRNA inh HTS RFP 2.3.
For COC(=O)C1=C(C)N(C)C(=NCc2ccccc2C(F)(F)F)NC1c1ccc(Cl)cc1 (stereo unspecified) the results were FGF22 binding inactive, rRNA inh HTS -41.8, rRNA inh HTS OD600 -73.2 and rRNA inh HTS RFP -12.9.
COc1ccccc1S(=O)(=O)N1CC[C@@H]2[C@H](CO)Nc3ccc(-c4cccc(C#N)c4)cc3[C@@H]21 was read as FGF22 binding inactive, rRNA inh HTS -7.7, rRNA inh HTS OD600 -8.7 and rRNA inh HTS RFP 15.4.
Screening COc1ccc(-c2ccc3c(c2)[C@H]2[C@H](CCN2C(=O)c2ccc4c(c2)OCO4)[C@@H](CO)N3)cc1 returned FGF22 binding inactive, rRNA inh HTS -0.5, rRNA inh HTS OD600 -4.7 and rRNA inh HTS RFP 7.4.
Screening COc1ccc(NC(=O)N(C)C[C@H]2OCCCC[C@@H](C)Oc3ccc(NS(=O)(=O)c4ccc(OC)cc4)cc3C(=O)N([C@@H](C)CO)C[C@H]2C)cc1 returned FGF22 binding inactive, rRNA inh HTS -3.6, rRNA inh HTS OD600 -6.4 and rRNA inh HTS RFP 0.6.
COc1cccc(CNC(=O)C[C@@H]2CC[C@H]3[C@H](COc4ccc(NC(C)=O)cc4C(=O)N3C)O2)c1 was read as FGF22 binding inactive, rRNA inh HTS 0.0, rRNA inh HTS OD600 -3.7 and rRNA inh HTS RFP -0.6.
Screening Cc1cccc(-c2ccc(C3[C@H]4CNC[C@@H]3N4Cc3cccc(F)c3)cc2)c1 (stereo partly specified) returned FGF22 binding inactive, rRNA inh HTS -5.2, rRNA inh HTS OD600 -42.9 and rRNA inh HTS RFP 3.4.
For COCC(=O)N1CC2(C1)[C@H](c1ccc(-c3cccc(F)c3)cc1)[C@H](CO)N2C(=O)C1CC1 the results were FGF22 binding inactive, rRNA inh HTS -4.3, rRNA inh HTS OD600 -4.8 and rRNA inh HTS RFP -0.9.
Screening O=C(N[C@H](C(=O)N1CCC[C@H]1C(=O)NC1CCCC1)C1CCCCC1)C1CC1 returned FGF22 binding inactive, rRNA inh HTS 28.4, rRNA inh HTS OD600 14.0 and rRNA inh HTS RFP 3.9.
O=C(C[C@@H]1CC[C@@H]2[C@H](COC[C@H](O)CN2S(=O)(=O)c2ccccc2F)O1)N1CCC(Cc2ccccc2)CC1 was read as FGF22 binding inactive and rRNA inh HTS inactive.
CCN1[C@@H]2Cn3c(cccc3=O)[C@H]1[C@@H](C(=O)NC1Cc3ccccc3C1)[C@@H]2CO was read as FGF22 binding inactive, rRNA inh HTS 1.9, rRNA inh HTS OD600 7.4 and rRNA inh HTS RFP 0.0.
CN(C)CC(=O)Nc1ccc2c(c1)[C@@H]1C[C@H](CC(=O)NCc3ccccc3F)O[C@@H](CO)[C@@H]1O2 was read as FGF22 binding inactive, rRNA inh HTS 0.4, rRNA inh HTS OD600 2.4 and rRNA inh HTS RFP 0.9.

Entries from the list above that have a Cl atom:
CN(C)CCCNC(=O)C[C@@H]1CC[C@@H]2[C@H](COC[C@@H](O)CN2S(=O)(=O)c2ccc(Cl)cc2)O1 was read as FGF22 binding inactive, rRNA inh HTS 2.2, rRNA inh HTS OD600 4.2 and rRNA inh HTS RFP -2.0.
For COC(=O)C1=C(C)N(C)C(=NCc2ccccc2C(F)(F)F)NC1c1ccc(Cl)cc1 (stereo unspecified) the results were FGF22 binding inactive, rRNA inh HTS -41.8, rRNA inh HTS OD600 -73.2 and rRNA inh HTS RFP -12.9.

Next records follow:
Screening C[C@@H]1CCCCO[C@@H](CN(C)Cc2ccc3c(c2)OCO3)[C@@H](C)CN([C@@H](C)CO)C(=O)c2cc(NC(=O)Nc3cccc4ccccc34)ccc2O1 returned FGF22 binding inactive, rRNA inh HTS 1.7, rRNA inh HTS OD600 1.2 and rRNA inh HTS RFP 5.9.
For C[C@H]1CN([C@@H](C)CO)C(=O)Cc2cc(NC(=O)Cn3cnnn3)ccc2O[C@@H]1CN(C)C(=O)Nc1cccc2ccccc12 the results were FGF22 binding inactive, rRNA inh HTS -0.5, rRNA inh HTS OD600 3.1 and rRNA inh HTS RFP -4.0.
Screening CNC(=O)C[C@@H]1CC[C@@H]2[C@@H](COc3ccc(NC(=O)c4cc(C)on4)cc3C(=O)N2C)O1 returned FGF22 binding inactive, rRNA inh HTS -0.5, rRNA inh HTS OD600 -4.3 and rRNA inh HTS RFP -2.7.
For CO[C@H]1CN(C)C(=O)c2cc(NS(=O)(=O)CC(F)(F)F)ccc2OC[C@H](C)N(Cc2nccs2)C[C@@H]1C the results were FGF22 binding inactive, rRNA inh HTS 0.9, rRNA inh HTS OD600 -2.1 and rRNA inh HTS RFP -1.1.
`COc1ccccc1CNC(=O)C[C@H]1CC[C@@H]2[C@H](COC[C@H](O)CN2Cc2cccc(-c3ccncc3)c2)O1` gave FGF22 binding inactive, rRNA inh HTS -4.2, rRNA inh HTS OD600 -9.2 and rRNA inh HTS RFP 0.5.
`O=C(N[C@H](Cc1ccccc1)C(=O)NCc1cccc2ccccc12)[C@H]1O[C@@H](n2ccc(=O)[nH]c2=O)[C@H](O)[C@@H]1O` gave FGF22 binding inactive, rRNA inh HTS -12.8, rRNA inh HTS OD600 -18.9 and rRNA inh HTS RFP 6.6.
For CCCNC(=O)C[C@@H]1CC[C@@H]2[C@@H](COc3ccc(NC(=O)COC)cc3C(=O)N2C)O1 the results were FGF22 binding inactive, rRNA inh HTS 3.0, rRNA inh HTS OD600 6.0 and rRNA inh HTS RFP -3.0.
`C[C@H]1CN(C(=O)OC(C)(C)C)CCN1c1ccc(N2CC[C@@H](O)C2)c(C#N)c1` gave FGF22 binding inactive, rRNA inh HTS -17.8, rRNA inh HTS OD600 -12.7 and rRNA inh HTS RFP -2.4.
For COc1ccc(CN2C[C@@H](O)COC[C@@H]3O[C@H](CC(=O)NCCN4CCCC4)CC[C@H]32)cc1 the results were FGF22 binding inactive, rRNA inh HTS -1.1, rRNA inh HTS OD600 4.2 and rRNA inh HTS RFP 1.2.
COc1ccc(NC(=O)Nc2cccc3c2O[C@@H](CN(C)S(=O)(=O)c2ccc(F)cc2)[C@H](C)CN([C@@H](C)CO)C3=O)cc1 was read as FGF22 binding inactive, rRNA inh HTS -0.6, rRNA inh HTS OD600 -5.4 and rRNA inh HTS RFP -0.6.
O=C(C[C@@H]1CC[C@H]2[C@@H](COC[C@H](O)CN2Cc2cccc(-c3ccncc3)c2)O1)N1CCOCC1 was read as FGF22 binding inactive, rRNA inh HTS -2.3, rRNA inh HTS OD600 -6.0 and rRNA inh HTS RFP -6.4.
For Cc1[nH]c2ccccc2c1CC(=O)Nc1ccc(Nc2ccccc2)cc1 the results were FGF22 binding inactive, rRNA inh HTS -28.2, rRNA inh HTS OD600 -65.5 and rRNA inh HTS RFP 4.7.
For COc1ccc(S(=O)(=O)Nc2ccc3c(c2)CC(=O)N([C@@H](C)CO)C[C@@H](C)[C@@H](CN(C)Cc2ccc(-c4ccccc4)cc2)O3)cc1 the results were FGF22 binding inactive, rRNA inh HTS 1.8, rRNA inh HTS OD600 9.7 and rRNA inh HTS RFP 2.3.
Screening C[C@@H]1CN([C@@H](C)CO)C(=O)c2cc(NC(=O)C3CCCCC3)ccc2O[C@@H](C)CCCCO[C@@H]1CN(C)C(=O)Cc1ccccc1 returned FGF22 binding inactive, rRNA inh HTS 0.5, rRNA inh HTS OD600 -1.7 and rRNA inh HTS RFP 2.1.

Pulled by compound from above:
`COc1ccccc1CNC(=O)C[C@H]1CC[C@@H]2[C@H](COC[C@H](O)CN2Cc2cccc(-c3ccncc3)c2)O1` gave FGF22 binding inactive, rRNA inh HTS -4.2, rRNA inh HTS OD600 -9.2 and rRNA inh HTS RFP 0.5.
For C[C@H]1CN([C@@H](C)CO)C(=O)Cc2cc(NC(=O)Cn3cnnn3)ccc2O[C@@H]1CN(C)C(=O)Nc1cccc2ccccc12 the results were FGF22 binding inactive, rRNA inh HTS -0.5, rRNA inh HTS OD600 3.1 and rRNA inh HTS RFP -4.0.

Screening results from PubChem.

The list is partial; rates above refer to the full screens.
